VACV Venus inh = qHTS for Stage-Specific Inhibitors of Vaccinia Orthopoxvirus: Venus Reporter Primary qHTS. 330,000 compounds, 0.46% hits. AID 720580, 2013. Potency, µM (series often up to 36.5 µM), for inactives: at the highest dose activity change, negative = inhibition, actives largely listed as inhibitors. Vaccinia virus Venus reporter expression, fluorescence; active means well fitted inhibition curve with a large enough effect; inconclusive means small, poorly fitted or top-dose-only effect; inactive means no such curve, though single readings can be large or run the other way; tested in A549 cells; further: nearly all actives have a fitted effect of over 30% in size; inactives centre near -10
VACV mCherry inh = qHTS for Stage-Specific Inhibitors of Vaccinia Orthopoxvirus: mCherry Reporter Primary qHTS; AID 720579, 2013; Vaccinia virus mCherry reporter infection, fluorescence; about a quarter of the inactives have no number; Potency, µM (top dose mostly 36.5 µM), without a hit: at the highest dose activity change, negative = inhibition, actives largely listed as inhibitors; 310,000 compounds, 0.63% hits; active = well fitted inhibition curve with a large enough effect; inconclusive = small, poorly fitted or top-dose-only effect; inactive = no such curve, though single readings can be large or run the other way; tested in A549 cells; further: nearly all actives have a fitted effect of over 35% in size; inactives centre near -10
Starred values were filed as active, the others as inactive; i = inactive; ? = inconclusive; . = not tested or not shown; & = joins results of further samples; [ ] = another dose, or the depositor's remark. On the % scale 0 is the no-effect control and ±100 the full control effect; potency means the concentration at half of the fitted maximal effect.

The first five compounds (preview)
smiles	VACV mCherry inh	VACV Venus inh
CCOC(=O)C1=C(COC(=O)COc2ccccc2C#N)NC(=O)NC1C (configuration not stated)	1%	5%
COc1ccc2cc1Oc1ccc(cc1)C[C@H]1c3cc(c(OC)cc3CCN1C)Oc1c(OC)c(OC)cc3c1[C@@H](C2)N(C)CC3	-28%	-30%
O=C(NCCc1c[nH]c2ccccc12)/C(=C/c1cccnc1)NC(=O)c1cccs1	-14%	-13%
CCOc1ccc(Nc2c(S(=O)(=O)c3ccc(C)cc3)cnc3ccc(F)cc23)cc1	?	?
O=C(CSc1ccc2nnc(CCNC(=O)c3ccccc3)n2n1)NC1CCCC1	i	-14%

Results, from the first entry:
smiles	VACV mCherry inh	VACV Venus inh
CCOC(=O)C1=C(COC(=O)COc2ccccc2C#N)NC(=O)NC1C (configuration not stated)	1%	5%
COc1ccc2cc1Oc1ccc(cc1)C[C@H]1c3cc(c(OC)cc3CCN1C)Oc1c(OC)c(OC)cc3c1[C@@H](C2)N(C)CC3	-28%	-30%
O=C(NCCc1c[nH]c2ccccc12)/C(=C/c1cccnc1)NC(=O)c1cccs1	-14%	-13%
CCOc1ccc(Nc2c(S(=O)(=O)c3ccc(C)cc3)cnc3ccc(F)cc23)cc1	?	?
O=C(CSc1ccc2nnc(CCNC(=O)c3ccccc3)n2n1)NC1CCCC1	i	-14%
O=C(NCc1n[nH]c(=S)n1-c1ccc(Br)cc1)c1ccc(S(=O)(=O)N2CCCCC2)cc1	-25%	9%
Cc1c(C)n(C(=O)CSc2ncn[nH]2)c2ccccc12	.	-3%
CCOC(=O)N1CCN(Cc2nc3cc(NC(=O)C(C)C)ccc3n2C(C)C)CC1	-15%	-22%
Cc1ccc(Cl)cc1Nc1nc2ccccc2c2nncn12	-15%	-5%
Cc1ccc(S(=O)(=O)N2CCN(CC(=O)N/N=C\C(Cl)=C\c3ccccc3)CC2)cc1	-10%	-6%
CCOC(=O)Cn1c(S(=O)(=O)Cc2ccc(F)cc2)nc(-c2ccccc2)c1-c1ccccc1	?	-13%
O=C(NC(=S)N1CCN(c2ccc([N+](=O)[O-])cc2)CC1)c1ccccc1Cl	-15%	-19%
COC(=O)c1ccc(CN2CCC(n3nccc3NC(=O)C3CCCC3)CC2)cc1	-4%	-15%
COCC(C)n1c(=O)sc2ccccc2c1=O (configuration not stated)	-14%	-12%
O=C(c1cc2ccccc2oc1=O)N1CCOCC1	-24%	-2%
C=CCOc1ccc(C(=O)Nc2ccccc2C(=O)N2CCCC2)cc1	-13%	-8%
O=C(NCCCl)Nc1cccnc1Cl	-1%	-8%
CS(=O)(=O)N1CCC(C(=O)Nc2ccc(F)cc2F)CC1	-18%	-23%
COc1ccc(CCN(C)C(=O)C2CCN(Cc3ccccc3)CC2)cc1OC	-2%	6%
O=C(NCc1ccccc1)C1=C[C@@H](c2ccccc2)C[C@@H](OCCCCO)O1	i	-17%
Cc1cc(C(=O)NCCC(c2ccccc2)c2ccccc2)c(C)o1	-23%	-19%
Cc1ccc(NC(=O)N2CCCC2C(=O)Nc2nnc(C(C)C)s2)cc1 (configuration not stated)	-11%	0%
CCOC(=O)c1c(NC(=O)C2c3ccccc3Oc3ccccc32)sc2c1CCC(CC)C2 (configuration not stated)	-6%	-2%
CC(=O)NC(Cc1ccccc1)c1ccc2c(c1)OCCCO2 (configuration not stated)	-11%	-2%
CN(C)C(=O)c1cc(C(=O)c2ccc(Cl)cc2Cl)c[nH]1	?	-21%
CN1CCN(c2ccc(CNC(=O)c3ccc4c(c3)OCCO4)cc2)CC1	-18%	-16%
CC(=O)c1nn(-c2ccc(OC(F)(F)F)cc2)nc1Nc1ccccc1	-3%	-7%
Cc1nc2ccc(S(=O)(=O)CCC(=O)Nc3ccc(F)cc3C)cc2s1	-9%	-6%
CCOC(=O)CN(C(=O)CSc1nnc(C)n1-c1ccccc1)c1ccccc1	-8%	-14%
O=C(NC(=S)NCCN1CCOCC1)c1ccccc1Cl	-3%	-3%
C[C@H](CO)N1C[C@H](C)[C@@H](CN(C)S(=O)(=O)c2ccc(-n3cccn3)cc2)OCc2cn(nn2)CCCC1=O	-8%	-11%
CC(N)C(=O)OC(C)(C)Cc1ccc(Cl)cc1 (configuration not stated)	-2%&-7%	-13%&-16%
O=C(c1cccs1)N1CCN(S(=O)(=O)c2cccs2)CC1	-27%	-16%
Cc1cc(Br)ccc1NC(=O)c1ccc(-n2cncn2)c([N+](=O)[O-])c1	-17%	-10%
CCN(CC(=O)NCCCN1CCOCC1)S(=O)(=O)c1cc(Cl)ccc1Cl	-18%	2%
O=C(NNc1ccc(Cl)cc1)c1cccs1	-18%	-5%
c1ccc(CCN=C2CCCc3c2[nH]c2ccccc32)cc1	-21%	-25%
O=C(c1cccs1)N1CCCC(c2nc3c(nnn3Cc3c(Cl)cccc3Cl)c(=O)[nH]2)C1 (configuration not stated)	-22%	-12%
Cc1nc(-c2ccccc2)nc(-c2ccccc2)n1	i	-4%
O=C(CSc1nnc(Nc2ccccc2F)s1)NCC1CCCO1 (configuration not stated)	i	-8%
COc1cccc(C(=O)Nc2ccc(NC(=O)Cc3ccccc3)cc2)c1	-21%	-17%
COc1cccc(OC)c1OCCCOc1ccc(C)cc1Br	-5%	6%
C=C1C(=O)O[C@H]2[C@H]1[C@H](OC(=O)CC(=O)O[C@@H]1C[C@@H](C)[C@@H]3C=CC(=O)[C@@]3(C)[C@H]3OC(=O)C(=C)[C@H]13)C[C@@H](C)[C@H]1C=CC(=O)[C@]12C	?	-27%
CCOC(=O)C(=O)NCC(c1cccnc1)N1CCN(c2ccccc2)CC1 (configuration not stated)	-2%	-13%
Cc1ccc(S(=O)(=O)n2c([N+](=O)[O-])cnc2C)c(C)c1C	-8%	-9%
COc1cccc(C(c2nnnn2C2CCCC2)N2CCN(C/C=C/c3ccccc3)CC2)c1OC (configuration not stated)	i	-7%
CCOc1ccc(C(=O)NCC(=O)OCCCOC(=O)CNC(=O)c2ccc(OCC)cc2)cc1	-13%	-4%
CCN(C(=O)COC(=O)CCn1c(C)csc1=O)c1c(N)n(Cc2ccccc2)c(=O)[nH]c1=O	-15%	0%
c1ccc2c(c1)CCN(CCCNc1nc3ccccc3n3cnnc13)C2	i	-1%
Cc1ccc(OCCC(=O)OCC(=O)NCc2ccccc2)cc1	-16%	-4%
COc1ccc(OC)c(S(=O)(=O)N2CCN(C)CC2c2ccccc2)c1 (configuration not stated)	-19%	-8%
Cc1ccc(C(=O)OCC(=O)Nc2ccc3c(c2)OCO3)cc1S(=O)(=O)N1CCOCC1	i	-4%
COC(=O)[C@@H]1C[C@@H]2CC[C@@H](O)C[C@@H]2N1Cc1ccc(N2CCN(C)CC2)cc1	-9%	-19%
N#Cc1ccc(C(=O)N2Cc3cnnn3-c3ccccc3C2C#N)cc1 (configuration not stated)	-7%	6%
CCOc1cc(C2C(C(=O)OC)=CN(Cc3ccc(Cl)cc3)C=C2C(=O)OC)ccc1O	?	?
Cc1cnc(C(=O)OCc2c(C)cc(C(C)(C)C)cc2C)cn1	-17%	-6%
CCCCC(=O)Nc1cccn2ncnc12	-12%	-14%
CCOc1nc(-c2ccc(C)cc2)ccc1-c1noc(-c2ccccc2F)n1	-9%	-13%
COc1ccc(OC)c(NS(=O)(=O)c2cccc3cccnc23)c1	i	-1%
CC1(C)C(=O)N(CC(=O)Nc2ccc(Cl)cc2)c2ccccc21	-9%	-3%

Other results.
smiles	VACV mCherry inh	VACV Venus inh
Cc1ccc(Nc2nc(=O)c3cccnc3s2)c(Br)c1	?	2%[7.34 µM]
O=C(c1cnn2c(C(F)F)cc(-c3ccccc3)nc12)N1CCCCC1c1cccnc1 (configuration not stated)	-2%	-15%
COc1cc(NC(=O)C2C3CCC(O3)C2C(=O)O)cc(OC)c1 (configuration not stated)	?	-14%
O=C(Cn1nnc(-c2ccccc2NC(=O)c2cccs2)n1)Nc1ccccc1	-4%[1.46 µM]	-28%
O=C1NC(C(=O)O)=CC(c2cccc(Cl)c2Cl)N1 (configuration not stated)	i	-6%
COc1cc2ccccc2cc1C(=O)Nc1ccc2oc(=O)ccc2c1	i	-5%
c1csc(-c2nnc(N3CCCCCC3)c3ccccc23)c1	-3%	-14%
O=C(NC1CCCCCCC1O)c1ccccc1 (configuration not stated)	i	-13%
COC(=O)C1=C(C)N(c2ccc(C(=O)OC)cc2)C(=O)C1	-14%	4%
CN(C)S(=O)(=O)c1cccc(NC(=O)COC(=O)c2cccc(S(=O)(=O)N3CCc4ccccc4C3)c2)c1	-1%	-6%
Cc1ccc(C)c(S(=O)(=O)c2cnc(SCC(=O)Nc3ccc(F)cc3F)[nH]c2=O)c1	7%	9%
COc1ccccc1Cn1c(=O)oc2ccc(C)cc21	-12%	-12%
O=C(NNC1CC(=O)N(c2ccc3c(c2)OCCO3)C1=O)c1ccc(Cl)cc1 (configuration not stated)	i	2%
O=C(Cc1ccc(F)cc1)Nc1cccc(-c2nc3cccnc3s2)c1	-11%	-6%
Cc1ccc(C(=O)NCCCNC(=O)c2ccccn2)cc1	0%	17%
CCn1c(SCC(=O)Nc2ccccc2N2CCCCC2)nc2c1c(=O)n(C)c(=O)n2C	-4%	-14%
COC(=O)C1=C(c2ccc(S(C)(=O)=O)cc2)C[C@@H]2CC[C@H]1N2C(=O)NCCS(C)=O (some centres not stated)	i	2%
CCn1c(SCC(=O)N2CCCC2)nc2c(c1=O)SCC2	-8%	-3%
CCCN(CCC)C(=O)c1c2c(nc3ccccc13)C(=O)N(C1CCCCC1)C2	-11%	-8%
COC(=O)c1c(C)[nH]c(O)c1C=Nc1ccc(C(C)C)cc1	1%	16%
CCNC(=O)c1c(NC(=O)Cc2coc3cc(C)ccc23)sc2c1CCCC2	-12%	-5%
CCOC(=O)c1ccc(NC(=O)c2ccccc2N(C)S(=O)(=O)c2ccccc2)cc1	i	-22%
CS(=O)(=O)N1CCC(C(=O)N2CCc3ccccc3C2)CC1	-19%	-9%
COc1ccc(COC(=O)Nc2cn(C)nc2C(F)(F)F)cc1	i	-22%
O=C1CN(C(=O)COC(=O)c2ccccc2Br)c2ccccc2N1	?	-11%
O=C(COC(=O)Cc1ccsc1)Nc1ccc(Cl)cc1F	-14%	-8%
C[C@H](CO)N1C[C@H](C)[C@@H](CN(C)C(=O)NC2CCCCC2)Oc2c(NC(=O)C3CCCCC3)cccc2C1=O	-7%	-23%
O=C(O)/C(=C\c1cccc(F)c1)c1ccc(S(=O)(=O)N2CCCC2)s1	-12%	-6%
CCOC(=O)c1ccc(NC(=O)Cn2c(=O)n(-c3ccc(C)cc3)c(=O)c3c2cnn3C)cc1	-5%	-6%
CN(C)CCOc1cccc(Cl)c1	-7%	-6%
COc1ccc(NC(=O)c2cccnc2SC)cc1S(=O)(=O)N1CCCCC1	-11%	-13%
CCN(C[C@H]1N[C@@](CC)(C(=O)OC)[C@H]2C(=O)N(C)C(=O)[C@@H]12)C(=O)Nc1ccc(F)cc1	-3%	1%
O=C(Cn1[nH]c(=O)c2ccccc2c1=O)Nc1ccc(-c2nnc3n2CCCCC3)cc1	.	-19%
CC1(C)CC(=O)N(Cc2ccccc2)C(=O)C1	-5%	-17%
C#CCOCCOCCOCCNc1nc(N2CCN(C(=O)Cn3cc(CCO)nn3)CC2)nc(N2CCN(C(=O)[C@H](C)n3cc(CCCN=C(N)N)nn3)CC2)n1	i	2%
COc1ccc(N(CC(=O)N/N=C/c2ccc(OC)c(OC)c2)S(=O)(=O)c2ccccc2)cc1	i	-14%
CCOC(=O)c1ccc(-c2c(-c3ccc4c(c3)OCO4)noc2C)cc1F	?	-14%&0%
CC1CC(=O)c2cnc(NCc3ccco3)nc2C1 (configuration not stated)	-18%	-5%
CCC(=O)N1c2ccccc2CC1C(=O)NCc1cccc(OC)c1OC (configuration not stated)	-8%	7%
CN(C(=O)CSc1nnc(-c2cccnc2)n1-c1ccccc1F)C1CCS(=O)(=O)C1 (configuration not stated)	-7%	1%
CCN1C(=O)c2cccc3c(S(=O)(=O)N(C)C)ccc1c23	-9%	-8%
Cc1cccc(OCCCC(=O)Nc2ccc(S(N)(=O)=O)cc2)c1C	-16%	-17%
NC(=O)CSc1nnc(Cc2ccc3c(c2)OCO3)o1	i	-7%
O=C(CCS(=O)(=O)c1cc(Br)cc2c1N(C(=O)C1CC1)CC2)N1CCN(c2ccccc2)CC1	-14%	-8%
Clc1ccccc1-c1nnc(COc2ccccc2)o1	-7%	-7%
O=C(NCCC1=CCCCC1)C1CCC(CNS(=O)(=O)c2ccccc2)CC1 (configuration not stated)	-19%	-17%
C=C1C[C@H](O)[C@@H]2[C@H](OC(=O)[C@H]2C)[C@H]2[C@H](C)[C@@H](O)C[C@@H]12	3%	-3%
